# D2 potentiator = potentiates the human D2 dopamine receptor allosterically. P14416. DiscoveRx D2 beta-arrestin cells, luminescence, 90 min; 100% = 57 uM dopamine signal. potentiation, % (test concentration not listed). 0.23% of 360,000 active; active = potentiation of 50% or more; inconclusive = 30% to 50%; inactive = 30% or less;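 note: compound concentration not given in the record; tested on top of an EC20 dose of dopamine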
# Target sequence (P14416 whole entry, looked up): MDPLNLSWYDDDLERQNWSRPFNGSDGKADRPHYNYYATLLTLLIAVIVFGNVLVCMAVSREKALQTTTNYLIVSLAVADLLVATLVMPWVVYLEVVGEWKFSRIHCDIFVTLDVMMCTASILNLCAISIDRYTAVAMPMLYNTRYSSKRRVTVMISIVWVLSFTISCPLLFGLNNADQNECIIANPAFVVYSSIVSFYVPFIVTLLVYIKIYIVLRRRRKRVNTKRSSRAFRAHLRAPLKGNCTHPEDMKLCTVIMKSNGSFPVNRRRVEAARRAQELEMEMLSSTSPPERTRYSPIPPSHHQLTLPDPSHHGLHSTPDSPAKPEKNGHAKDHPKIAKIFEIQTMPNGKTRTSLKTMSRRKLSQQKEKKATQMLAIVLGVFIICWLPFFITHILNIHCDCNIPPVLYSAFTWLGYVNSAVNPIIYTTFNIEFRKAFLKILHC
#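 PathHunter D2 cells, attached overnight at 37 deg C, received compound in DMSO plus dopamine at EC20 (50 nM final) for 90 min at 37 deg C. Beta-arrestin recruitment was read as luminescence after 1 h with detection reagent at ambient temperature.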
# PINK1 expr mod = PINK1 expression modulation; PINK1 immunofluorescence, high-content cytometry, 24 h; Potency, µM (top dose mostly 76.6 µM), without a hit: at the highest dose activation (PINK1 increase), hits mostly activators; 0.2% of 410,000 active; AID 624263; active = well fitted activation curve with a large enough effect; inconclusive = small, poorly fitted or top-dose-only effect; inactive = flat fitted curve, though single readings scatter; cell line not stated here;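 note: potency is the fitted concentration of half-maximal effect; % of control where 0% means no effect; nearly all actives have a fitted effect of over 65% in size; a mitochondrial uncoupler was the plate control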
#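 Measures PINK1 amount and localization on or inside mitochondria by immunofluorescence. Stable cells get compounds at 5 concentrations for 24 hours before fixation and staining; CCCP controls included.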
# TRPML1 ag = human mucolipin-1 channel agonism; Q9GZU1; 0.12% of 410,000 active; activation, % (test concentration not listed); TRPML1-expressing cells, Ca2+ dye fluorescence, FDSS; host cell line not named in the record; reference of the full effect not given here; in the data active = activation above about 50%; inconclusive = about 30% to 50%; inactive = below about 30%; note: 0% is about no effect; the text of the record puts the active cut at 80%
# Target sequence (Q9GZU1 whole entry, looked up): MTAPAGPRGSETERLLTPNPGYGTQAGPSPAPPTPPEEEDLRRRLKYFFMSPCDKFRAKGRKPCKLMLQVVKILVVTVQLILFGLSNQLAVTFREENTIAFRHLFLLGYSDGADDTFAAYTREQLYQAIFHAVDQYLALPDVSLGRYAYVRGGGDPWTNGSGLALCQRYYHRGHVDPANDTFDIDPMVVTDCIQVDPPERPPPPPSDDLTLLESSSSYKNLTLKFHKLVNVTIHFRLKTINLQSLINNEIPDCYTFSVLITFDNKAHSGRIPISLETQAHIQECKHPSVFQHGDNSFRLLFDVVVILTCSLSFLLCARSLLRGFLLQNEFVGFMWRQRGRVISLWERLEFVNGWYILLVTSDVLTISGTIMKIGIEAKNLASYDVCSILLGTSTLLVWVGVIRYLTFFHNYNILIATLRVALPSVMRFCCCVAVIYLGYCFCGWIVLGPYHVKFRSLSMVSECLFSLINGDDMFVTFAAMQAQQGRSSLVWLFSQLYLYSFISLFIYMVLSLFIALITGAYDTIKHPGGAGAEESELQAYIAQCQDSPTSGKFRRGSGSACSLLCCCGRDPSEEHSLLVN
#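 TRPML1-DL cells, Tet-induced overnight (~16 h, 37 degrees C), loaded 45-90 min at room temperature with Ca8 no-wash calcium dye plus quencher. FDSS fluorescence: 10 s baseline, compound pin-transfer, 110 s agonist read, then EC80 54-4 (4uM final) and 110 s antagonist read.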
# CtBP-E1A inh = inhibitors of CtBP/E1A interaction; AlphaScreen GST-E1A/His-CtBP binding, 1536-well; active compounds read low; control for the full effect not named in the record; activity change, % (concentration not given with the values); 0.49% of 340,000 active; AID 651724; in the data active means activity change below about -65%; inconclusive means about -30% to -65%; inactive means above about -30%; note: % is set by controls: 0 for no effect and ±100 for the full control effect
#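 GST-E1A and His-tagged CtBP (125 nM each as 5X stock) were preincubated with pin-transferred compound for 2 h at 37 °C in the dark, then glutathione donor and nickel acceptor beads were added for 1 h before AlphaScreen reading.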
# Six1-Eya2 inh = Six1/Eya2 interaction inhibition; Q15475+O00167; AlphaScreen GST-Six1/His-Eya2 binding, biochemical; active compounds read low; control for the full effect not named in the record; activity change, % (test concentration not listed); 0.56% of 360,000 active; AID 651725; in the data active = activity change below about -65%; inconclusive = about -30% to -65%; inactive = above about -30%; note: % is set by controls: 0 for no effect and ±100 for the full control effect
#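 Six1/Eya2 binding was read as AlphaScreen signal after compounds were pinned into GST-Six1 plus His-tagged Eya2 (5X stock 250/500 nM) in pH 8.0 Tris/NaCl/TCEP buffer, beads added, then incubated 1 h, 37 C, dark.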
# D2 agonist = human D2 receptor agonism in beta-arrestin assay; activation, % (no concentration beside the values); P14416; 0.084% of 360,000 active; DiscoveRx PathHunter D2 beta-arrestin, luminescence, 90 min; 100% = 57 uM dopamine signal; in the data active = activation above about 40%; inconclusive = about 15% to 40%; inactive = below about 15%; note: compound concentration not given in the record; the text of the record calls up to 30% inactive
#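 Agonist mode: compounds alone added to overnight-plated D2 PathHunter cells for 90 min at 37 C, with 57 uM final dopamine (EC100) defining full response. Beta-arrestin recruitment detected by chemiluminescent reagent, read after 1 h at ambient temperature.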
# * hit, by the source's call; ? = inconclusive; . = not tested or not shown; & = joins results of further samples; [ ] = dose if it differs, or a comment.
SMILES,D2 potentiator,PINK1 expr mod,TRPML1 ag,CtBP-E1A inh,Six1-Eya2 inh,D2 agonist
O=C(CSc1nccn(-c2ccc3c(c2)OCCO3)c1=O)Nc1ccccc1,-16,-1.0%,0.1,-20,-5,-2.7
CC(C)C(c1nnnn1C(C)(C)C)N1CCOCC1 (stereo not drawn),-12,1.5%,-0.8,3,9,-4.4
Cc1ccc(C(=O)N/N=C/c2cccc(OC(=O)/C=C/c3ccco3)c2)cn1,2,8.1%,-0.1,.,-10,0.1
COc1ccccc1N1CCN(C(=O)C(=O)N/N=C/c2cccc(O)c2)CC1,2,0.0%[38.3 µM],1.0,9,0,-3.0
CN1CN(C)c2ccc([N+](=O)[O-])c3cccc1c23,-8,-2.7%,-0.5,-23,-24,-6.9
CN(C(=O)COC(=O)c1ccc2c(=O)n3c(nc2c1)CCC3)C1CCS(=O)(=O)C1 (stereo not drawn),-7,3.1%,-0.6,11,0,-1.1
COC(=O)c1cc(NC(=O)C2(S(=O)(=O)c3ccc(C)cc3)CC2)cc(C(=O)OC)c1,-11,16%,1.6,-12,8,-5.5
CS(=O)(=O)c1ccc(-c2cc(NC=O)c3ncc(-c4ccc(F)cc4)n3c2)cc1,-6,1.0%,0.6,-4,-9,-4.0
Cc1ccc(CNC(=O)CN(c2ccc(C)cc2)S(=O)(=O)c2c(C)nn(C)c2C)cc1,-5,1.7%&1.7%,4.1&0.6,.,2,2.4
Cn1cccc1C(=O)OCC(=O)N1CCc2ccccc21,10,4.5%,-1.2,.,-1,0.4
Cc1cc(C(=O)N2CCN(C(c3ccccc3)c3ccccc3)CC2)no1,-13,-4.9%[38.3 µM],0.6,0,-5,-3.3
CCCn1c(CCl)nc2cc(S(=O)(=O)N3CCOCC3)ccc21,-6,-0.6%,0.0,6,0,-1.5
O=C(CC(C(=O)O)c1cccc(Cl)c1)c1ccccc1 (stereo not drawn),-8,2.8%,0.6,6,25,1.3
CCCC1CC(C)(C(=O)Cn2[nH]c(=O)ccc2=O)OC1=O (stereo not drawn),-12,1.7%,-0.2,3,5,-6.7
Cc1ccc(SCC(=O)N2c3ccccc3Sc3ccccc32)cc1,-25,1.7%,0.8,13,0,-2.0
Cc1ccc(NCCC(=O)c2cccs2)cc1C,-31,2.3%,0.2,-3,-27,1.8
COc1cccc(C2C3=C(CCCC3=O)Nc3nc(-c4cc(OC)c(OC)c(OC)c4)nn32)c1 (stereo not drawn),-8,18%[38.3 µM],-0.7,-9,-11,-2.0
O=C(CCc1ccccc1)NCCC1=CCCCC1,-8,0.9%,0.1,4,16,-0.9
COc1ccc(-c2noc(CN(C)C(=O)CCCN3C(=O)[C@H]4CC=CC[C@H]4C3=O)n2)cc1,-2,2.7%,-0.6,-6,-24,-0.1
COc1ccc(C(=O)C2CCCN(Cc3ccc4nonc4c3)C2)cc1F (stereo not drawn),-13,0.8%,0.6,-2,2,0.2
Cc1ccc2occ(/C=C/C(=O)O)c(=O)c2c1,-7,1.5%,0.1,-6,1,-1.8
Cc1ccc(NC(=O)C2Cc3ccccc3O/C2=N\O)cc1C (stereo not drawn),-4,13%,-0.1,7,3,1.7
CC(=O)NS(=O)(=O)c1cccnc1Nc1cccc(Cl)c1C,-4,0.5%,0.6,3,0,-2.0
COc1cccc(NC(C)C(=O)N2CC(C)OC(C)C2)c1 (stereo not drawn),0,1.6%,-0.2,8,2,2.0
COc1ccc(N/C=C(\C2OC(=O)c3ccccc32)[N+](=O)[O-])cc1 (stereo not drawn),-16,0.8%,-0.7,25,0,-2.0
COc1ccc(C(=O)COC(=O)c2nc3nccc(C)n3n2)cc1F,2,3.2%,-0.9,.,-5,0.3
O[C@H]1C[C@H](c2ccc(Cl)cc2)N(CC2CCCCC2)C[C@@H]1n1cc(C2CC2)nn1,-4,-3.0%,0.8,-4,-11,-1.9
CN(CC(=O)N(C)CC(=O)Nc1c(Cl)cccc1Cl)Cc1ccccc1F,0,1.6%,-0.7,.,1,5.4
Cc1ccccc1-n1ccnc1SCC(=O)O,-8,3.2%,-0.5,2,-1,-0.6
O=C(OCc1c(-c2ccccc2)ncc2ccccc12)c1cccs1,-6,-0.1%,1.5,-21,-4,-0.4
O=C(CN1N=C(C(F)(F)F)CC1(O)c1ccc([N+](=O)[O-])cc1)c1ccccc1 (stereo not drawn),17,-0.6%,0.7,-8,-6,-0.6
COc1ccc(OC)c2c1cc(C(=O)N[C@H](C(=O)N1CCC[C@H]1C(=O)O)C(C)C)n2C,6,-0.8%,.,-13,-5,?
CC(/C=N/NC(=O)Cn1cnc2ccccc21)=C\c1ccccc1,-4,-0.8%,2.3,-18,-9,-3.5
N#Cc1c2ccc(OCC(=O)NCc3ccco3)cc2n2ccccc12,-1,2.0%,1.4,6,-10,1.7
COc1ccc(S(=O)(=O)N2CCC3(CC2)OCCN3S(=O)(=O)c2ccccc2)cc1OC,-24,4.5%,0.5,4,-5,-4.0
O=C(N/N=C1\CCCc2ccccc21)c1cccc([N+](=O)[O-])c1,-12,-3.9%[38.3 µM],-0.2,9,1,0.7
Cn1c(=O)c2c(nc(NCCc3ccccc3)n2Cc2ccc(F)cc2)n(C)c1=O,-3,-0.7%,-0.6,2,-4,0.4
CCn1c(CSc2nc3ccccc3[nH]2)nc2cc(C(=O)O)ccc21,-3,4.2%,0.9,-16,1,-3.4
Cc1ccc(C(=O)NNC(=O)c2ccc(SCC3CCCO3)c([N+](=O)[O-])c2)cc1 (stereo not drawn),-9,1.6%[38.3 µM],1.4,-1,-3,-3.5
CCN1CCN(CC(=O)Nc2cccc(C)c2C)C(=O)C1=O,-2,1.0%,-0.6,5,6,-2.5
COc1ccc2c(c1)C(=O)O[C@@H](c1ccccc1)C[C@@H](O)C(=O)CC2,.,-0.3%,0.0,-2,0,.
COC(=O)NCCc1cc(OC)c(OC)cc1S(=O)(=O)N1CC(=O)Nc2ccccc21,-1,1.5%,1.2,12,-2,3.0
COc1cc(S(=O)(=O)Nc2ccccc2)ccc1NC=O,-18,3.3%[38.3 µM],-0.1,-3,2,-3.1
CCOC(=O)N1CCN(C(=O)C2CCCN(c3ncnc4c3nc3n4CCCCC3)C2)CC1 (stereo not drawn),1,0.4%,-0.6,5,-1,7.6
CCC(=O)NC(=S)Nc1ccc(NC(=O)c2ccccc2[N+](=O)[O-])cc1,-4,4.0%,-0.3,1,0,-0.9
O=C(CNC(=O)c1ccc2c(c1)OCO2)Nc1cccc(Br)c1,-2,-0.3%,1.2,-1,1,-4.2
COc1cc(NC(=O)C2(C)CCCN(C(C)C)C2)cc(OC)c1OC (stereo not drawn),-6,-0.7%,0.1,1,8,-2.1
CCOC(=O)c1cccc(N2C(=O)Nc3ccccc3N2O)c1,-6,0.1%,0.1,20,16,-3.1
CS(=O)(=O)c1ncc(Cl)c(C(=O)Nc2ccc3ccccc3c2)n1,-19,-1.1%,0.9,0,-27,-9.8
O=C(Oc1ccnc2cc(Cl)ccc12)N1CCCCCC1,-19,-1.6%,0.8,37,3,0.5
Cc1cccc(N2CCN(C(=S)c3ccc([N+](=O)[O-])cc3)CC2)c1,-2,0.0%,2.6,?,?,-1.2
Cc1nnc(NC(=O)C(C)Sc2nnc(-c3ccco3)n2C(C)C)s1 (stereo not drawn),0,-1.0%,-0.3,5,-5,-0.6
Cc1ccc(C)c2[nH]c(=O)c(CCNC(=O)Cc3cccs3)cc12,-5,-0.4%,-0.4,-2,6,-5.0
COc1ccc2[nH]c3c(=O)n(Cc4ccc(C(=O)N5CCC(C(N)=O)CC5)cc4)c(=S)[nH]c3c2c1,-17,21%,0.7,.,?,2.8
COc1ccc([C@H]2CC(=O)C=C(c3ccc(C)cc3)C2)cc1,-15,1.3%,2.5,-5,-2,-1.0
Cc1ccc(-c2csc(NC(=O)CCNC(=O)c3ccco3)n2)cc1,-4,3.1%,0.7,-3,1,-0.1

# An excerpt from above in order of formula weight, highest first:
SMILES,D2 potentiator,PINK1 expr mod,TRPML1 ag,CtBP-E1A inh,Six1-Eya2 inh,D2 agonist
COc1ccc2[nH]c3c(=O)n(Cc4ccc(C(=O)N5CCC(C(N)=O)CC5)cc4)c(=S)[nH]c3c2c1,-17,21%,0.7,.,?,2.8
COC(=O)NCCc1cc(OC)c(OC)cc1S(=O)(=O)N1CC(=O)Nc2ccccc21,-1,1.5%,1.2,12,-2,3.0
Cc1nnc(NC(=O)C(C)Sc2nnc(-c3ccco3)n2C(C)C)s1 (stereo not drawn),0,-1.0%,-0.3,5,-5,-0.6
O=C(CNC(=O)c1ccc2c(c1)OCO2)Nc1cccc(Br)c1,-2,-0.3%,1.2,-1,1,-4.2
CCC(=O)NC(=S)Nc1ccc(NC(=O)c2ccccc2[N+](=O)[O-])cc1,-4,4.0%,-0.3,1,0,-0.9
CS(=O)(=O)c1ncc(Cl)c(C(=O)Nc2ccc3ccccc3c2)n1,-19,-1.1%,0.9,0,-27,-9.8
Cc1ccc(-c2csc(NC(=O)CCNC(=O)c3ccco3)n2)cc1,-4,3.1%,0.7,-3,1,-0.1
Cc1cccc(N2CCN(C(=S)c3ccc([N+](=O)[O-])cc3)CC2)c1,-2,0.0%,2.6,?,?,-1.2
Cc1ccc(C)c2[nH]c(=O)c(CCNC(=O)Cc3cccs3)cc12,-5,-0.4%,-0.4,-2,6,-5.0
CCOC(=O)c1cccc(N2C(=O)Nc3ccccc3N2O)c1,-6,0.1%,0.1,20,16,-3.1
COc1cc(S(=O)(=O)Nc2ccccc2)ccc1NC=O,-18,3.3%[38.3 µM],-0.1,-3,2,-3.1
O=C(Oc1ccnc2cc(Cl)ccc12)N1CCCCCC1,-19,-1.6%,0.8,37,3,0.5
CCN1CCN(CC(=O)Nc2cccc(C)c2C)C(=O)C1=O,-2,1.0%,-0.6,5,6,-2.5
COc1ccc([C@H]2CC(=O)C=C(c3ccc(C)cc3)C2)cc1,-15,1.3%,2.5,-5,-2,-1.0

# Screening results (PubChem BioAssay)

# Compounds were not picked by outcome (roughly 1.3% active in at least one column).
